Compound activity: PubChem, several laboratories
Autofluor counter: flagged as autofluorescent in microsphere protease counterscreen; compound autofluorescence counterscreen, microsphere flow cytometry; hits give high values; fluorescence intensity (concentration not given with the values); 3.1% of 360,000 active;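 active means at least 3 SD above the mean of all compounds, about 16000 in these data; inconclusive means too few beads counted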;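 further: 100 nL of 1 mM stock went into each well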
Mtb hypoxia rep: reduces hypoxia-regulated biosensor signal in M. tuberculosis; fluorescence inhibition, % (concentration not given with the values); M. tuberculosis hypoxia-regulated fluorescent reporter, fluorescence; 0.1% of 300,000 active; AID 1159583;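 active means 35 to 45% if threefold the growth effect, above 45% if 1.5-fold the growth effect; inactive means the rest, general growth blockers included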;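 further: wells of about 50 µL received 100 nL stock; 0% = vehicle wells and 100% = reference inhibitor wells; whole bacteria with a GFP reporter of the hypoxia response; strong numbers were not always called active; many hits fall short of the cut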
Sa RN4220 lethal: S. aureus RN4220 growth inhibition; OD600, 16 h; inhibition, % (test concentration not listed); 0.33% of 330,000 active; AID 1259311;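 active means z-score of -3 or lower and OD600 up to 0.18 on both plates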;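 further: plate controls were untreated cells for no effect and reference antibiotic for full effect; stock transfer was 100 nL into about 80 µL; one replicate is shown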
BJeLR viability: kills HRASV12-expressing BJeLR cells. BJeLR (HRASV12) viability, CellTiter-Glo ATP luminescence, 48 h; reference of the scale not given here. inhibition, % (test concentration not listed). 0.17% of 300,000 active. AID 1554;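 active means replicate mean above 50%; inconclusive means above 50% but judged a plate artefact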;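 further: 50 nL library stock added to about 25 µL; numbers are from one replicate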
PrP 5UTR inh: suppresses PrP 5' UTR mRNA reporter expression; cell-based PrP 5' UTR mRNA reporter, plate reader; inhibition, % (no concentration beside the values); 0.35% of 340,000 active;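 active means every replicate at 50% or more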;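 further: 0 = median of the neutral control wells; tested in H4 reporter cells; numbers are from one replicate; inactives centre near -14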
ugtP null kill: kills S. aureus RN4220 lacking UgtP; S. aureus RN4220 ugtP deletion, OD600 growth, 16 h; some inactives read as strong as hits; growth inhibition, % (test concentration not listed); 0.54% of 330,000 active;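 active means z-score under -3 and OD600 up to 0.15 on both plates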;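 further: plate controls were untreated wells for no effect and antibiotic for full effect; wells of about 80 µL received 100 nL stock; the first replicate is given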
Mtb hypoxia rep growth: further read-out of Mtb hypoxia rep, marked with its call; growth inhibition, %; measured here: M. tuberculosis growth (absorbance);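 0% = vehicle and 100% = reference antibiotic; read after six days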
The depositor's hits bear a star; ? = inconclusive; · = not tested or not shown.

Fields – BJeLR viability, Mtb hypoxia rep growth, ugtP null kill, Sa RN4220 lethal, PrP 5UTR inh, Autofluor counter, Mtb hypoxia rep
COc1ccc2oc(C(=O)NC(C)(C)C)c(C)c2c1
 : -13, -3, 0, 3.9, -101, 4245, 6
Cn1nnnc1SCC(=O)NC(=O)Cc1ccccc1
 : 0, 8, 5, 1.1, -12, 4001, 19
O=C1CN(O)C=C2N=c3ccccc3=C2N1c1ccc([N+](=O)[O-])cc1
 : 7, 3, 10, 4.2, 1, 7190, 14
COC(=O)C(NC(=O)c1ccc(Cl)cc1)(Nc1nc(C)cs1)C(F)(F)F (stereo unspecified)
 : -5, 5, -16, 9.3, -24, 9183, -3
CCOC(=O)CSc1nnc(-c2ccoc2C)n1-c1ccc(C)cc1
 : 4, 14, 4, 2.6, -10, 3678, 15
O=C(CCc1ccccc1)Oc1ccccc1[N+](=O)[O-]
 : 1, -2, 4, 4.5, ·, ·, 1
Cc1ccc(NC(=O)c2cccnc2)cc1S(=O)(=O)N1CCOCC1
 : 0, 0, 3, 5.1, -18, 6754, 12
O=C(NCCN1C(=O)CCC1=O)c1ccncc1
 : 4, ·, 0, 3.8, 5, 4518, ·
COc1ccc(C(=O)NCC(=O)N2CCCCC2)cc1OC
 : -3, -1, -1, -0.5, -46, 3383, -13
CCCc1cc(=O)oc2cc(OCC(=O)N3CCC(C(=O)O)(c4ccccc4)CC3)ccc12
 : 2, ·, -16, 5.7, -11, 4276, ·
CCN1CCN(c2ncnc3c2sc(=S)n3-c2ccccc2)CC1
 : -6, ·, 9, 0.8, -4, 4482, ·
CN(c1ccccc1)S(=O)(=O)c1ccc(C(=O)NCc2ccccc2CN2CCCC2)cc1
 : ·, 5, -9, 3.7, -21, 6513, 9
COc1cccc(-c2ccc(NC(=O)C3CCCN(Cc4cnc(C)s4)C3)cc2)c1 (stereo unspecified)
 : 1, 9, 4, 2.2, -8, 6294, 3
Cc1cc(C)c(NS(=O)(=O)c2ccc(Cl)c(C(=O)O)c2)c(C)c1
 : 2, 1, 2, 2.1, -29, 15992, 3
COc1ccccc1C1=NOC(C(=O)N2CCN(C(=O)c3ccco3)CC2)C1 (stereo unspecified)
 : 0, -3, 7, 0.9, -13, 5606, 5
COc1ccc(-c2nn(-c3ccccc3)cc2C(=O)N(C)C)cc1
 : 3, -6, 1, -0.3, -10, 3278, 5
N#Cc1c(N)nc(SCC(=O)NC2CCCCC2)c(C#N)c1-c1ccc(Cl)cc1
 : 12, 2, 6, 3.2, -7, 16126*, 8
CCc1ccc(OCC(=O)NCCOc2ccccc2)cc1
 : -10, -3, 2, 4.2, -12, 16107, -1
Cn1c2ccccc2c2nnc(SCc3ccc4nonc4c3)nc21
 : -6, 1, 2, 1.3, -21, 5436, -3
COc1ccc(NS(=O)(=O)c2c(C)[nH]c(=O)[nH]c2=O)c(OC)c1
 : -6, -2, -11, 4.3, -28, 9214, -5
Cc1ccc(NC=C(S(=O)(=O)c2ccccc2)S(=O)(=O)c2ccccc2)c(C)c1
 : 1, 2, 1, -0.2, -52, 3081, 4
COc1ccc2nc(Cl)c(C3CC(c4ccco4)=NN3C(=O)CCCC(=O)O)cc2c1 (stereo unspecified)
 : -6, 5, -5, 1.7, ·, 4392, -6
O=c1[nH]c(C(F)(F)F)nc2ccc3ccccc3c12
 : -1, 10, 31, 35, -13, 3832, 1
O=C(CNC(=O)c1ccc2c(c1)OCO2)NN=C(Br)/C=C/c1ccccc1
 : ·, 6, -3, -0.7, ·, ·, 8
CC(=O)Nc1ccc(S(=O)(=O)Nc2nc3ccccc3nc2Nc2ccc(S(N)(=O)=O)cc2)cc1
 : 1, 14, -4, 8.1, -25, 9427, 0
Cc1cc(C)c(S(=O)(=O)N/N=C/c2ccc([N+](=O)[O-])o2)c(C)c1
 : 2, ·, ·, ·, -2, 5198, ·
COc1ccc2[nH]c3c(=O)n(Cc4ccc(C(=O)NCC5CCCO5)cc4)c(=S)[nH]c3c2c1 (stereo unspecified)
 : 2, -5, -6, 3.0, -26, 4289, -1
O=C(N/N=C/c1cccc(O)c1)NC1CCCCC1
 : 1, ·, ·, ·, -6, ?, ·
O=C(Cn1cnc2ccccc2c1=O)NCCCN1CCCC1=O
 : ·, 1, -2, 0.4, -18, 3579, 8
Cc1cccc(N/N=C/c2ccccc2O)c1
 : -10, ·, ·, ·, -134, 8263, ·

Gathered by group, the compounds so far containing a Cl atom.
Fields – BJeLR viability, Mtb hypoxia rep growth, ugtP null kill, Sa RN4220 lethal, PrP 5UTR inh, Autofluor counter, Mtb hypoxia rep
COC(=O)C(NC(=O)c1ccc(Cl)cc1)(Nc1nc(C)cs1)C(F)(F)F (stereo unspecified)
 : -5, 5, -16, 9.3, -24, 9183, -3
Cc1cc(C)c(NS(=O)(=O)c2ccc(Cl)c(C(=O)O)c2)c(C)c1
 : 2, 1, 2, 2.1, -29, 15992, 3
N#Cc1c(N)nc(SCC(=O)NC2CCCCC2)c(C#N)c1-c1ccc(Cl)cc1
 : 12, 2, 6, 3.2, -7, 16126*, 8
COc1ccc2nc(Cl)c(C3CC(c4ccco4)=NN3C(=O)CCCC(=O)O)cc2c1 (stereo unspecified)
 : -6, 5, -5, 1.7, ·, 4392, -6

Single records, from the list above:
Cc1cc(C)c(S(=O)(=O)N/N=C/c2ccc([N+](=O)[O-])o2)c(C)c1 is listed as BJeLR viability = 2; Mtb hypoxia rep growth = ·; ugtP null kill = ·; Sa RN4220 lethal = ·; PrP 5UTR inh = -2; Autofluor counter = 5198; Mtb hypoxia rep = ·
COc1ccc2[nH]c3c(=O)n(Cc4ccc(C(=O)NCC5CCCO5)cc4)c(=S)[nH]c3c2c1 (stereo unspecified) is listed as BJeLR viability = 2; Mtb hypoxia rep growth = -5; ugtP null kill = -6; Sa RN4220 lethal = 3.0; PrP 5UTR inh = -26; Autofluor counter = 4289; Mtb hypoxia rep = -1

Additional structures
Fields – BJeLR viability, Mtb hypoxia rep growth, ugtP null kill, Sa RN4220 lethal, PrP 5UTR inh, Autofluor counter, Mtb hypoxia rep
COc1cc(C=NN2CCOCC2)ccc1OCc1ccc(Cl)cc1
 : ·, 8, 10, 8.0, ·, ·, 4
CC12CC(c3ccccc3O1)N(C(=O)c1ccco1)C(=S)N2c1ccccc1 (stereo unspecified)
 : -3, 9, 6, -0.3, -12, 6696, 2
CC(C)CC1(CCc2ccccc2)C(=O)NC(=O)NC1=O
 : ·, 9, 0, 3.2, -7, 3806, 5
O=C(C1CC(=O)N(C2CCCC2)C1)N1CCN(c2ccc(F)cc2)CC1 (stereo unspecified)
 : 9, 5, 7, 1.3, 2, 4307, 4
O=C(O)CC(CC(=O)NCC(O)c1ccccc1)c1ccccc1 (stereo unspecified)
 : -4, -1, 4, 0.1, -9, 3485, -7
CC(C)CC1NC(=O)N(CC(=O)N2c3ccccc3NC(=O)C2(C)C)C1=O (stereo unspecified)
 : 4, -8, 11, 4.6, -18, 3338, 3
O=c1[nH]c(=O)n(-c2cccc(Cl)c2)c(O)c1/C=N/c1ccccn1
 : -1, ·, 2, -0.3, -5, 2611, ·
Cc1ccc(-c2cc(C(F)(F)F)n3ncc(C(=O)NCc4ccco4)c3n2)cc1
 : 7, ·, -3, 5.0, -17, 2702, ·
COc1ccc(NS(=O)(=O)c2ccc3oc(Nc4ccc5c(c4)OCCO5)nc3c2)cc1
 : 1, ·, -16, -2.9, -10, 2618, ·
Cc1cc(C(=O)COC(=O)c2ccccc2Br)c(C)n1CC1CCCO1 (stereo unspecified)
 : 2, -1, 5, 9.8, 77*, 3433, 6
Cc1ccc2nc(Cn3cc(C(F)(F)F)cc(Cl)c3=O)cc(=O)n2c1
 : 3, 7, -4, -0.7, -3, 4384, -7
CC(C)(C)NC(=O)NC(=O)CSc1nnc(-c2ccccc2F)n1N
 : 1, -3, 6, 9.5, -13, 3247, -5
CC1CCN(CC(=O)Nc2nccs2)CC1
 : 2, 0, -1, 1.3, -6, 3651, -8
O=C(NC1CCCCCCC1)C1CCCN(S(=O)(=O)c2cnc[nH]2)C1 (stereo unspecified)
 : 1, ·, 6, -0.1, -19, 5174, ·
CC(C)C(=O)N1CCN(c2ccccc2NC(=O)c2ccco2)CC1
 : 0, 2, 2, 4.6, -23, 5068, 5
Fc1cccc(Cl)c1-c1nnc2ccc3ccccc3n12
 : -10, 9, 16, 15, -10, 2519, 2
Cc1[nH]c2ccccc2c1C(c1ccncc1)N1CCCCC1 (stereo unspecified)
 : -9, 3, 2, -3.2, -17, 3995, 8
Cc1cc(C)nc(SCC(=O)N/N=C/c2cc(C)n(-c3ccccc3C)c2C)n1
 : 12, ·, ·, ·, -12, 2371, ·
COc1ccc(S(=O)(=O)N2CCN(C(=O)CCc3c[nH]c4ccccc34)CC2)cc1
 : ·, 8, 1, 6.6, ·, 6001, 11
CN(CC(=O)NCC(c1ccco1)N1CCCCC1)S(=O)(=O)c1ccc(Cl)cc1 (stereo unspecified)
 : -6, -10, 4, 2.4, -18, 6331, 4
COc1ccc(-c2cc(C(=O)N3CCCC3)c3ccccc3n2)cc1
 : -2, 3, 3, 1.9, -23, 4922, 10
CCCNC(=O)c1cnc(-c2ccccc2)nc1-c1ccccc1
 : 4, 18, 10, 3.4, ·, 3712, 5
CCOc1ccc(CCNC(=O)C2CCN(c3nnc(-n4cccc4)s3)CC2)cc1OCC
 : 3, 11, -5, -7.9, -10, 2877, 15
O=C(c1cc(S(=O)(=O)N2CCOCC2)ccc1Cl)N1CCC(Cc2ccccc2)CC1
 : -12, 8, 2, 1.3, -10, 6024, -2
O=C(Nc1ccccc1)C1=CC(C2CC2)CC(OCc2ccc(CO)cc2)O1 (stereo unspecified)
 : ·, 5, 3, 0.7, ·, ·, 3
COc1ccc(S(=O)(=O)N2CCOC2CNC(=O)C(=O)NCc2ccccn2)cc1 (stereo unspecified)
 : 5, -1, 4, -0.6, -18, 5478, 10
CCOC(=O)[C@@H]1[C@H]2COc3cc(OC)ccc3[C@@H]2N2C(=O)N(c3cccc(F)c3)C(=O)[C@@]12C
 : 6, ·, ·, ·, -20, 2965, ·
N#CCCN1C(=O)C2(OCCO2)c2ccccc21
 : 5, 11, 23, 6.2, -21, 3350, 7
Cc1ccc(S(=O)(=O)c2c(N)n(CCCN(C)C)c3nc4ccccc4nc23)cc1
 : 4, -2, 16, 1.7, -7, 3405, 10
COc1cc(C(=O)Nc2nc3ccc(C)cc3s2)ccc1OCc1c(C)noc1C
 : 6, ·, 6, 24, -12, 4460, ·
CSc1ncccc1C(=O)OCC(=O)Nc1nc(C)c(Cl)cc1Cl
 : ·, 7, 11, 5.4, -14, 2847, 9
Cc1cc(=O)n2c3ccccc3n(C)c2n1
 : -6, 5, 7, 1.4, -27, 4322, 17
CCOc1ccc(C(=O)NCC(=O)N2CCCCCCC2)cc1
 : ·, 9, -1, -3.1, -7, ?, -1
CC(C)(C)NC(=O)NC(=O)CN1CCN(S(=O)(=O)/C=C/c2ccccc2)CC1
 : -6, 4, 4, 1.6, -12, 3654, -10
COc1ccc(CNC(=O)CS(=O)(=O)Cc2nc(-c3ccc(OC)cc3)oc2C)cc1
 : 3, 7, -1, 0.0, -22, 5158, 1
Cn1c(=O)oc2cc(S(=O)(=O)NCc3cccnc3)ccc21
 : 15, -7, 3, 0.1, -25, ?, -1
Clc1ccc(Cc2ccc(SCc3ccccc3)nn2)c(Cl)c1
 : 1, 6, 15, -1.1, -9, ?, 18
COC(=O)C1CCN(C(=O)C2CCCCC2)CC1
 : -13, 11, 7, 5.5, -29, 10908, 14
CCOC(=O)C1=NNC(C(=O)c2ccccc2)C1c1ccc(Cl)cc1 (stereo unspecified)
 : 5, 6, 57, 30, -1, 4803, 14
O=C(COc1ccc2c(c1)CCC2)Nc1ccccn1
 : 10, 13, -4, -0.9, -4, ?, -5
Cc1ccccc1NC(NC(=O)c1cccs1)C(Cl)(Cl)Cl (stereo unspecified)
 : 25, 6, -26, -9.4, -31, 3321, 8
COc1cccc(NC(=O)c2ccccc2Oc2ccccc2)c1
 : -10, 4, 8, 3.6, -27, 3316, 0
c1ccc(C2OCCN2c2ccccc2)cc1 (stereo unspecified)
 : ·, 11, 2, 3.0, -13, 4229, 11
O=C(COC(=O)CNC(=O)c1ccccc1Cl)Nc1cc(C(F)(F)F)ccc1Cl
 : ·, 7, -3, 0.7, -10, 4204, 2
Nc1cc(=O)[nH]c2nnc(SCC(=O)Nc3cccc4ccccc34)n12
 : 1, 9, 0, 0.4, -26, 5666, 0
COC(=O)c1ccccc1NC(=O)c1cc2ccccc2o1
 : 4, 9, 3, 7.8, -25, 3762, 6
